Compound activity deposited in PubChem by Broad Institute.
Vaccinia stage = blocks a specific stage of Vaccinia orthopoxvirus infection; Vaccinia-infected cells, mCherry/Venus stage reporter fluorescence; hits give low values; some inactives read as strong as hits; activity change (mCherry), % (concentration not given with the values); 0.01% of 89,000 active;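 active means mCherry past -33% and 40 or more points under the early reporter, replicates agreeing; inconclusive means past -33% without that gap or agreement; tested in A549 cells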;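 further: scaled between vehicle wells and reference inhibitor wells; 23 nL library stock went into each well; one replicate is shown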
Vaccinia stage Venus = second read-out of Vaccinia stage, no call of its own (marks repeat the call); activity change (Venus), %; measured here: Venus reporter, other viral stage;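 negative = less Venus signal; first of two replicates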
The depositor's hits bear a star; ? = inconclusive; / = no result given; & = joins results of further samples.

canonical_smiles | Vaccinia stage | Vaccinia stage Venus
O=C(C[C@H]1C=C[C@@H](NC(=O)CN2CCOCC2)[C@H](CO)O1)NCc1cccc(F)c1 | 5.8 | 7.6
C[C@H](CO)N1C[C@H](C)[C@H](CN(C)C(=O)Nc2ccccc2C(F)(F)F)OCc2ccccc2-c2c(n(C)c3ccccc23)C1=O | ? | /
C/C=C/c1ccc2c(c1)O[C@@H](CN(C)C(=O)Nc1ccccc1)[C@@H](C)CN([C@H](C)CO)S2(=O)=O | -10.9 | 1.1
COc1ccc(S(=O)(=O)N2CC[C@@H]3[C@@H](CO)Nc4ccc(C5=CCCCC5)cc4[C@@H]32)cc1 | 14.4 | 6.7
C[C@@H]1CN([C@H](C)CO)C(=O)Cc2cc(NC(=O)Nc3ccc4c(c3)OCO4)ccc2O[C@H]1CN(C)Cc1ccccc1 | -19.5 | -12.1
C[C@H]1CN([C@@H](C)CO)C(=O)c2cccc(NS(=O)(=O)c3ccc(Cl)cc3)c2O[C@H]1CN(C)S(=O)(=O)c1ccc(Cl)cc1 | ? | /
COc1ccc2c3c(n(C)c2c1)[C@@H](CO)N(C(=O)C1CCOCC1)CC31CCN(C)CC1 | 1.9 | -4.4
CCC(=O)N1[C@@H](CO)[C@@H]2c3ccccc3N(C(=O)c3ccccc3F)C[C@@H]21 | 8.7 | 4.3
O=C(N[C@@H]1CC[C@@H](CCn2cc(-c3ccccc3F)nn2)O[C@@H]1CO)c1ccc2c(c1)OCO2 | 5.3 | 21.3
C[C@@H]1CCCCO[C@H](CN(C)Cc2ccccc2)[C@H](C)CN([C@@H](C)CO)C(=O)c2cc(NS(=O)(=O)c3cn(C)cn3)ccc2O1 | 30.3 | 9.3
O=C(C[C@@H]1CC[C@@H]2[C@H](COC[C@H](O)CN2C(=O)c2ccccc2)O1)NCc1cccc(F)c1 | -0.8 | 9.6
C[C@H]1CN([C@@H](C)CO)S(=O)(=O)c2ccc(C#CC3CCCC3)cc2O[C@H]1CN(C)Cc1ccccc1C(=O)O | -1.8 | 4.4
COc1ccc(NC(=O)Nc2ccc3c(c2)C(=O)N([C@H](C)CO)C[C@@H](C)[C@H](CN(C)S(=O)(=O)c2ccc(OC)cc2)O3)cc1 | -0.8 | 5.1
O=C(Cc1ccccn1)NCC[C@H]1CC[C@H](NC(=O)Nc2ccc(F)cc2)[C@@H](CO)O1 | 0.2 | -3.7
COc1ccccc1-c1ccc([C@@H]2[C@H](C#N)N[C@@H]2CO)cc1 | -29.5 | -1.7
COc1ccc(S(=O)(=O)N(C)C[C@@H]2Oc3ccc(NS(=O)(=O)c4cccs4)cc3CC(=O)N([C@@H](C)CO)C[C@H]2C)cc1 | -10.8 | 2.2
C[C@@H]1CN([C@@H](C)CO)C(=O)Cc2cc(NS(=O)(=O)c3cn(C)cn3)ccc2O[C@@H]1CN(C)CC1CCCCC1 | 11.5 | 5.9
C[C@@H]1CN([C@H](C)CO)C(=O)c2cccc(NS(C)(=O)=O)c2O[C@@H]1CN(C)Cc1ccccc1 | 23.5 | 14.4
O=C(Nc1ccc(C(F)(F)F)cc1)N[C@@H]1C=C[C@H](CC(=O)N2CCCCC2)O[C@H]1CO | -5.4 | 5.8
C[C@@H]1CN([C@@H](C)CO)C(=O)c2cccc(NC(=O)Nc3ccc(C(F)(F)F)cc3)c2O[C@@H]1CN(C)C(=O)NC1CCCCC1 | -31.3 | -15.2

Continued.
canonical_smiles | Vaccinia stage | Vaccinia stage Venus
COc1ccc(S(=O)(=O)Nc2ccc3c(c2)C(=O)N([C@@H](C)CO)C[C@H](C)[C@H](CN(C)S(=O)(=O)c2ccc(OC)cc2)O3)cc1 | 9.9 | 9.5
C/C=C/c1ccc([C@H]2[C@@H](CO)N3C(=O)CN(S(=O)(=O)c4ccccc4)C[C@@H]23)cc1 | -10.9 | -2.4
C[C@@H]1CN([C@@H](C)CO)C(=O)c2cc(NC(=O)Cn3cnnn3)ccc2O[C@@H]1CN(C)S(=O)(=O)c1ccccc1 | 3.2 | 1.7
OC[C@H]1[C@@H](c2ccccc2)C2(CN(Cc3nccs3)C2)N1CC1CCOCC1 | 32.5 | 12.0
CCC(=O)N1CCCCN2[C@H](C1)[C@@H](c1ccc(C#CCOC)cc1)[C@@H]2CO | 24.4 | 3.8
CNC[C@@H]1Oc2c(NS(=O)(=O)c3cccs3)cccc2C(=O)N([C@H](C)CO)C[C@@H]1C | -6.3 | -3.8
O=C(C[C@@H]1C=C[C@H](NC(=O)C2CCOCC2)[C@H](CO)O1)NCC1CCCCC1 | 6.2 | 2.5
CCC(=O)N1[C@H](CNC(=O)COC)[C@@H](c2ccc(-c3ccccc3)cc2)[C@@H]1CO | 10.2 | 10.6
COc1ccccc1NC(=O)N[C@@H]1CC[C@@H](CC(=O)N[C@@H](C)c2ccccc2)O[C@@H]1CO | 1.9 | 8.0
C[C@@H]1CN([C@H](C)CO)C(=O)Cc2cc(NC(=O)CCCCCC(=O)Nc3ccccc3N)ccc2O[C@@H]1CN(C)C(=O)Nc1ccc(F)cc1 | 8.1 | -0.1
N#C[C@@H]1[C@H](c2ccccc2-c2ccccc2F)[C@H](CO)N1C(=O)c1cccc(F)c1 | -12.8 | -4.5
CN(C)C(=O)c1ccc(-c2ccc([C@H]3[C@H](CO)N4CCCCN(C(=O)C5CCCC5)C[C@@H]34)cc2)cc1 | 15.1 | 9.0
O=C(CN1CCOCC1)N[C@@H]1CC[C@@H](CCn2cc(C3CC3)nn2)O[C@@H]1CO | -12.2 | -10.3
CC(C)C#Cc1ccc2c(c1)O[C@H](CN(C)Cc1cccnc1)[C@H](C)CN([C@H](C)CO)S2(=O)=O | -18.0 | -19.2
Cc1ccccc1S(=O)(=O)N1CC[C@@H]2[C@H]1c1cc(C#Cc3ccccc3)ccc1N[C@@H]2CO | -21.1 | -20.7
O=C(NCC(F)(F)F)[C@@H]1[C@@H](CO)[C@@H]2Cn3c(cccc3=O)[C@@H]2N1C(=O)C1CCC1 | 20.6 | 3.8
COc1ccc(S(=O)(=O)Nc2ccc3c(c2)CC(=O)N([C@@H](C)CO)C[C@@H](C)[C@H](CN(C)S(=O)(=O)c2ccc(C)cc2)O3)cc1 | -5.7 | -6.8
C[C@@H]1CN([C@H](C)CO)C(=O)c2cccc(NC(=O)c3cnccn3)c2O[C@H]1CN(C)Cc1ccncc1 | 4.9 | 1.4
O=S(=O)(c1ccccc1)N1C[C@@H]2[C@H](c3ccccc31)[C@H](CO)N2Cc1ccc2c(c1)OCO2 | 1.8 | 13.0
O=C(C[C@H]1CC[C@@H]2[C@H](COC[C@H](O)CN2S(=O)(=O)c2cccc(F)c2)O1)Nc1ccc(-c2ccccc2)cc1 | ? | /

Carrying on.
canonical_smiles | Vaccinia stage | Vaccinia stage Venus
Cc1noc(C)c1S(=O)(=O)Nc1ccc2c(c1)C(=O)N([C@@H](C)CO)C[C@@H](C)[C@@H](CN(C)Cc1ccncc1)OCCCC[C@@H](C)O2 | 13.1 | 9.6
C[C@@H]1CN([C@H](C)CO)C(=O)c2cc(NC(=O)c3ccccc3)ccc2O[C@@H](C)CCCCO[C@H]1CN(C)C(=O)c1ccncc1 | 11.8 | 2.6
C[C@@H]1CN([C@@H](C)CO)C(=O)c2cc(NC(=O)Cn3cnnn3)ccc2O[C@H]1CN(C)C(=O)Nc1ccc(C(F)(F)F)cc1 | 15.0 | 8.1
C[C@@H]1CN([C@@H](C)CO)C(=O)c2cc(NC(=O)CCN3CCOCC3)ccc2O[C@H]1CN(C)S(=O)(=O)c1ccc(Cl)cc1 | 5.0 | 7.3
O=C(Cc1ccccn1)NCC[C@@H]1CC[C@H](NC(=O)Nc2ccccc2)[C@H](CO)O1 | 3.8 | 2.7
O=C(Nc1ccccc1F)N[C@@H]1CC[C@@H](CCNC(=O)C2CCC2)O[C@@H]1CO | 16.0 | 11.6
COc1ccc(S(=O)(=O)Nc2ccc3c(c2)C(=O)N([C@H](C)CO)C[C@H](C)[C@H](CN(C)S(=O)(=O)c2ccccc2)OCCCC[C@H](C)O3)cc1 | -28.9 | -25.8
C[C@H](NC(=O)[C@@H]1[C@@H](CO)[C@@H]2Cn3c(ccc(-c4ccncc4)c3=O)[C@H]1N2C)c1ccccc1 | -0.6 | 1.2
C/C=C/c1ccc2c(c1)O[C@@H](CN(C)Cc1ccncc1)[C@H](C)CN([C@@H](C)CO)S2(=O)=O | -0.5 | -0.5
Cc1ccc(S(=O)(=O)N[C@@H]2CC[C@@H](CCNC(=O)C3CC3)O[C@H]2CO)cc1 | -5.7 | -2.1
C=CCNC(=O)[C@@H]1[C@H]2C(=O)O[C@H](c3ccccc3)[C@H](c3ccccc3)N2[C@H](c2ccccc2OCCO)[C@@]12C(=O)N(C(=O)OCCOC)c1ccc(C#Cc3ccc(OC)cc3)cc12 | -5.1 | -3.5
COc1cccc(S(=O)(=O)Nc2ccc3c(c2)C(=O)N(C)C[C@@H](OC)[C@@H](C)CN[C@H](C)CO3)c1 | 9.0 | 5.3
O=C(NC1Cc2ccccc2C1)[C@@H]1[C@@H](CO)[C@@H]2Cn3c(cccc3=O)[C@@H]2N1C(=O)c1cnccn1 | 19.9 | 10.3
C[C@@H]1CN([C@H](C)CO)S(=O)(=O)c2ccc(C#CC3CCCC3)cc2O[C@@H]1CN(C)S(C)(=O)=O | -29.1 | -43.3
CC(C)NC(=O)Nc1ccc2c(c1)C(=O)N([C@@H](C)CO)C[C@H](C)[C@@H](CN(C)C(=O)Nc1ccc(F)cc1)OCCCC[C@H](C)O2 | -2.0 | -0.4
C/C=C/c1ccc(C2[C@H]3CNC[C@@H]2N3Cc2ccccc2OC)cc1 (some centres undefined) | 7.1&-7.1 | 3.7&-18.0
Cc1noc(C)c1S(=O)(=O)N(C)C[C@H]1Oc2ccc(NC(=O)C3CC3)cc2CC(=O)N([C@H](C)CO)C[C@@H]1C | 22.8 | 19.1
COc1cccc(S(=O)(=O)N[C@@H]2C=C[C@@H](CC(=O)NCc3ccncc3)O[C@H]2CO)c1 | 13.4 | 15.8
COc1cccc(NC(=O)N(C)C[C@H]2Oc3cc(-c4cccc(C(=O)N(C)C)c4)ccc3S(=O)(=O)N([C@@H](C)CO)C[C@@H]2C)c1 | 5.0 | 1.8
O=C(C[C@@H]1C[C@H]2c3cc(NC(=O)CC4CC4)ccc3O[C@H]2[C@@H](CO)O1)NCc1ccccn1 | 19.9 | 16.9

Among those listed so far, 2 contain a thiophene ring, fused or not.
canonical_smiles | Vaccinia stage | Vaccinia stage Venus
COc1ccc(S(=O)(=O)N(C)C[C@@H]2Oc3ccc(NS(=O)(=O)c4cccs4)cc3CC(=O)N([C@@H](C)CO)C[C@H]2C)cc1 | -10.8 | 2.2
CNC[C@@H]1Oc2c(NS(=O)(=O)c3cccs3)cccc2C(=O)N([C@H](C)CO)C[C@@H]1C | -6.3 | -3.8

Continuation.
canonical_smiles | Vaccinia stage | Vaccinia stage Venus
Cc1ccccc1S(=O)(=O)NCC[C@@H]1CC[C@@H](NS(=O)(=O)c2ccccc2C)[C@@H](CO)O1 | -2.1 | 8.8
C[C@H]1CN([C@@H](C)CO)C(=O)Cc2cc(NC(=O)Nc3cccc4ccccc34)ccc2O[C@H]1CN(C)C(=O)Nc1cccc2ccccc12 | 14.5 | 9.9
CC(C)NC(=O)Nc1cccc2c1O[C@H](CN(C)C(=O)Nc1cccc3ccccc13)[C@H](C)CN([C@H](C)CO)C2=O | -26.4 | -18.1
COc1ccccc1-c1cnc2c(c1)C(=O)N([C@H](C)CO)C[C@@H](C)[C@@H](CN(C)Cc1cccc(F)c1)O2 | -31.9 | -19.8
C[C@@H]1CN([C@@H](C)CO)C(=O)c2cccc(NS(=O)(=O)c3cn(C)cn3)c2O[C@H]1CN(C)Cc1ccc(C(=O)Nc2ccccc2N)cc1 | 25.7 | 9.0
CCCNC(=O)C[C@@H]1CC[C@@H]2[C@@H](COc3ccc(NC(=O)c4ccc(Cl)cc4)cc3C(=O)N2C)O1 | -8.7 | -1.8
CCN1[C@@H]2Cn3c(ccc(-c4cccc(OC)c4)c3=O)[C@H]1[C@@H](C(=O)OC)[C@@H]2CO | 8.1 | 6.7
CS(=O)(=O)N1CC(=O)N2[C@@H](CO)[C@H](c3ccc(C#CCc4ccccc4)cc3)[C@@H]2C1 | 40.3 | 6.4
C[C@@H]1CCCCO[C@H](CN(C)S(=O)(=O)c2ccc(F)cc2)[C@@H](C)CN([C@@H](C)CO)C(=O)c2cc(NS(=O)(=O)c3cccs3)ccc2O1 | -8.4 | -6.6
O=C(C[C@H]1CC[C@H](NC(=O)Nc2ccccc2F)[C@H](CO)O1)NCc1ccc(Cl)cc1 | 10.4 | 7.6
COc1ccccc1-c1ccc2c(c1)O[C@H](CN(C)CC1CCOCC1)[C@H](C)CN([C@H](C)CO)S2(=O)=O | -26.2 | -14.1
C[C@H](CO)N1C[C@H](C)[C@H](CN(C)C(=O)Nc2ccc3c(c2)OCO3)Oc2ccc(NC(=O)CCN3CCOCC3)cc2CC1=O | 12.0 | 4.7
O=C(C1CCOCC1)N1CC2(C1)[C@@H](c1ccccc1)[C@H](CO)N2Cc1ccccc1F | 10.0 | 14.2

Reformatted: 2 of the compounds above
> COc1ccccc1-c1ccc2c(c1)O[C@H](CN(C)CC1CCOCC1)[C@H](C)CN([C@H](C)CO)S2(=O)=O
  Vaccinia stage: -26.2 | Vaccinia stage Venus: -14.1
> CC(C)NC(=O)Nc1cccc2c1O[C@H](CN(C)C(=O)Nc1cccc3ccccc13)[C@H](C)CN([C@H](C)CO)C2=O
  Vaccinia stage: -26.4 | Vaccinia stage Venus: -18.1

Not all compounds are listed. The share of hits here may be higher or lower than overall.
